TAR Tat displ: TAR RNA-Tat peptide displacers, HIV-1, primary screen, biochemical, FRET, FAM/TAMRA-labeled Tat; actives 0.6% (n = 100,000); HIV-1 TAR RNA, Tat peptide displacement FRET; stronger effect = higher value; z-score (test concentration not listed);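 also: score is relative to mean and SD of negative controls; some compounds called inactive have numbers as strong as hits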
CDC25B CDK2 inh: primary biochemical HTRF screen for blockers of M-phase inducer phosphatase 2 binding to CDK2/cyclin A. z-score (concentration not given with the values). HTRF CDC25B-CDK2/CyclinA binding, anti-His/anti-Flag; stronger effect = higher value. AID 1259370, 2018. actives 0.72% (n = 94,000). P30305+P24941;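 also: score is relative to mean and SD of negative controls; strong numbers were not always called active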
* hit, by the source's call; x = no result given.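 The calls were made as follows: active = z-score from 3 up in half or more of its runs; inactive = the rest.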

SMILES	TAR Tat displ	CDC25B CDK2 inh
COc1ccc(C2Nc3ccc(C(=O)c4ccccc4)cc3NC3=C2C(=O)CC(C)(C)C3)c(OC)c1 (configuration not stated)	-0.38	-0.55
CS(=O)(=O)Nc1cccc(C2=NN(C(=O)c3cccs3)C(c3ccccc3F)C2)c1 (configuration not stated)	x	-0.71
Cc1nn(-c2ccccc2)nc1CNC(=O)c1cc2c(C)nn(C)c2s1	x	-0.68
Cc1ccc2nc(-c3c[nH]c4ccccc34)c(Nc3ccc4c(c3)OCCO4)n2c1	x	-1.65
CC(=O)N1CCC(C(=O)Nc2ccc3nc(C)ccc3c2)CC1	x	-0.44
CC(C)CNC(=O)CCC1=NS(=O)(=O)c2ccccc2N1	0.36	x
CCOC(=O)COc1nc(-c2cccs2)cc(-c2ccco2)c1C#N	x	-2.41
CN(C)CCN1C(=O)C(=O)/C(=C(\O)c2ccc(F)cc2)C12C(=O)N(C)c1ccccc12 (configuration not stated)	1.21	-0.95
Cc1ccc2c(c1)sc1nc(C)c(S(=O)(=O)Nc3ccc(C)c(F)c3)c(=O)n12	0.96	x
O=c1[nH]cnc2c(-c3cccc(F)c3)csc12	-0.43	-1.17
COc1ccc(OC)c(C(O)CNC(=O)CN)c1 (configuration not stated)	0.15	x
COc1ccc(-c2nnc3c4cnn(-c5ccccc5)c4ncn23)cc1	-1.81	0.13
O=C1CC(c2cccc(F)c2)c2cc3c(cc2N1)OCCO3 (configuration not stated)	x	0.43
Cc1cccc(-c2nc3c4c(C)c(C)n(-c5ncccc5C)c4ncn3n2)c1	1.15	-1.77
CC(C)OC(=O)CSC1=C(C#N)C(c2ccccc2)CC(=O)N1 (configuration not stated)	5.05	-0.08
O=C(CCCN1C(=O)c2ccccc2Sc2ncccc21)NC1CC1	1.77	x
COC(=O)c1ccccc1S(=O)(=O)NC(=O)Nc1nc(C)c2c(n1)CCS(=O)(=O)C2	x	-2.43
O=C1c2ccccc2C(=O)N1CC1=NCCc2ccccc21	x	-1.37
CCC(C)C(Nc1ncnc2sc3c(c12)CCC3)C(=O)O (configuration not stated)	x	-1.82
Cc1ccc(-n2c(C)nc3c(cnn3-c3ccc(C)cc3)c2=O)cc1	x	-1.56
O=S(=O)(NCCc1ccccc1)c1ccc2[nH]c3c(c2c1)CCCC3	-0.26	x
COCCNC(=O)Cn1nnc2sc3c(c2c1=O)CCC(C(C)(C)C)C3 (configuration not stated)	-0.45	-1.98
O=C1CCc2cc(S(=O)(=O)N3CCN(c4cccc(C(F)(F)F)c4)CC3)ccc2N1	x	0.97
CCc1nn2c(=O)cc(COc3ccc(C(C)(C)C)cc3)nc2s1	0.37	-2.96
CCOC(=O)N1CCC(NC(=O)C2CCN(S(=O)(=O)c3cccs3)CC2)CC1	-0.32	-1.33

Structures shown so far with a tert-butyl group, in the order listed:
SMILES	TAR Tat displ	CDC25B CDK2 inh
COCCNC(=O)Cn1nnc2sc3c(c2c1=O)CCC(C(C)(C)C)C3 (configuration not stated)	-0.45	-1.98
CCc1nn2c(=O)cc(COc3ccc(C(C)(C)C)cc3)nc2s1	0.37	-2.96

Continuation.
SMILES	TAR Tat displ	CDC25B CDK2 inh
COc1cc(C2c3c(oc4ccc(C)cc4c3=O)C(=O)N2Cc2ccc(F)cc2)ccc1O (configuration not stated)	3.33	-0.43
COC(=O)c1sccc1NS(=O)(=O)c1cccc2nsnc12	x	-0.91
Cn1c(=O)c(=O)n(C)c2cc(S(=O)(=O)N3CCCC3)ccc21	-0.97	-1
Cc1nnc2c(N3CCC(C)CC3)nc3ccc(C(=O)c4ccccc4)cc3n12	1.92	x
COc1ccc(-n2c(=O)[nH]c(=O)c3sc(NC(=O)Nc4ccccc4)nc32)cc1	-0.15	0.85
Cc1ccc(C(=O)CC2(O)C(=O)N(C)c3ccc(Cl)cc32)cc1 (configuration not stated)	1.29	-0.77
Cc1ccc(CN2C(=O)CSC2c2ccc(C(C)C)cc2)cc1 (configuration not stated)	0.64	-1.92
O=C(CCSc1ccc(F)cc1)Nc1nc(-c2cccs2)cs1	1	x
O=C1NC(c2cccnc2)c2c1n[nH]c2-c1cccs1 (configuration not stated)	0.68	-0.97
COc1ccc(NC(=O)CSc2nc(-c3ccc4c(c3)OCO4)nc3cc(=O)[nH]n23)cc1	2.04	x
COc1cccc(CN2CCN(Cc3cc(Br)ccc3O)CC2)c1OC	-0.02	-1.29
Cn1c(=O)c2c(SCC(=O)N3CCCCCC3)nc(-c3cccs3)nc2n(C)c1=O	x	0.27
CCc1nnc(NC(=O)CSc2nnc(Cc3cccn3C)n2-c2ccc(OC)cc2)s1	x	-0.92
O=C(Nc1ccccc1Cl)N1CCn2c(nc3ccccc32)C1	0.02	-0.54
CC1CN(C(=O)N2CCC(C(=O)NC3CCCc4ccccc43)CC2)c2ccccc2O1 (configuration not stated)	0.29	x
Cc1cc(C)n2ncc(C(=O)N3CCN(c4ncccn4)CC3)c2n1	1.56	x
CN1C(C(=O)N2CCN(c3ccccc3)CC2)=CC(c2cccs2)=NS1(=O)=O	2.5	-2.03
Cc1ccc2nc(NC(=O)CSc3nc(=O)n(CCN(C)C)c4c3CCC4)sc2c1	1.06	x
Cc1nn(-c2cc(N3CCOCC3)ncn2)c(C)c1CCC(=O)N1CCN(CCO)CC1	1	-1.4
c1ccc2c(c1)SCc1nnc(-c3ccncc3)n1-2	x	-1.76
Cn1c(=O)oc2cc(NC(=O)c3cccs3)ccc21	-0.21	x
COC(=O)C1=NNC2(C)C(=O)N(c3ccccc3Cl)C(=O)C12 (configuration not stated)	-0.5	-0.75
Cc1ccc2c(c1)-c1c(cnn1CC(=O)N(Cc1ccco1)C1CCCCC1)CO2	1.79	-1.31
O=C(COc1ccc(F)cc1)Nc1ccc(-n2cnnn2)cc1	-0.05	-3.38
CC(C)n1c(N2CCN(C(=O)C3CC(=O)N(C4CCCCC4)C3)CC2)cc(=O)n(C(C)C)c1=O (configuration not stated)	0.8	x
The list goes on.
SMILES	TAR Tat displ	CDC25B CDK2 inh
C=CCn1c(SCC(=O)Nc2cc(C)on2)nc2sc3c(c2c1=O)CCC3	x	-0.73
Cn1c(CSCc2nc(-c3ccc(Cl)cc3)cs2)n[nH]c1=S	x	-1.82
COc1ccccc1OCCn1c(N)nc2ccccc21	0.64	0.05
O=C1c2ccccc2C2NCCCN12 (configuration not stated)	x	-2.67
Fc1ccc(-c2csc(Nc3ncccn3)n2)cc1	2.33	-1.31
CCn1nc(C)c(CCNC(=O)CCc2c(C)nn(-c3ccc(N4CCOCC4)nn3)c2C)c1C	-0.17	x
COc1ccccc1-c1n[nH]c(=O)c(Cc2ccc3c(c2)OCO3)n1	0.27	x
Cc1cn2c(=O)c(S(=O)(=O)Nc3ccc(F)cc3F)c(C)nc2s1	-1.48	x
O=C(Cn1ccc2cc(S(=O)(=O)N3CCCC3)ccc21)NCCc1cccs1	-0.51	x
COCCCNc1c(-c2ccc3c(c2)OCC(=O)N3)c(=O)c1=O	1.36	x
N#Cc1ccc(N2CCN(C(=O)c3ccc(OC(F)(F)F)cc3)CC2)cc1	x	-1.38
COc1cc2[nH]cc(S(=O)(=O)c3ccc(C(C)(C)C)cc3)c(=O)c2cc1OC	2.01	-0.86
COCCNC(=O)Cn1c(=O)c2cccn2c2ccc(F)cc21	1.19	x
CCc1cc2c3c([nH]c2cc1S(=O)(=O)N1CCN(c2ccccn2)CC1)CC(C)(C)CC3=O	1.38	x
CC(NS(=O)(=O)c1ccc(CN2C(=O)c3cccnc3C2=O)s1)c1ccc2c(c1)OCCO2 (configuration not stated)	-0.21	x
c1ccc2c(c1)ncn2CN1CCOCC1	x	0.59
Cc1ccc(S(=O)(=O)Nc2ccc3oc(=O)sc3c2)cc1	0.79	-1.56
CCCCOc1ccc(-c2noc(-c3ccc(OC)c(OC)c3)n2)cc1	x	-1.21
Cc1nnc(NC(=O)CSc2ccc(-c3sc(-c4cccs4)nc3C)nn2)s1	-3.75	x
Cc1ccc(C)c(-c2cc(C(=O)NN)c3ccccc3n2)c1	x	-0.33
C=CCNC(=O)CCc1nc(-c2cccs2)no1	1.12	-0.58
Cc1ccc(Cc2cnc(CN3CCCCC3)c(O)c2)cc1	x	-1.62
COCCn1c(C)cc(C(=O)CSc2nnc3ccc4ccccc4n23)c1C	x	-0.94
O=C1c2ccc(-c3nc4ccccc4c(=O)o3)cc2C(=O)N1Cc1cccnc1	x	-0.15
Fc1ccc(-c2noc3ncnc(N4CCC(N5CCCCC5)CC4)c23)cc1	0.5	x

Shown with values under each structure: part of the list above.
Values in the order: TAR Tat displ, CDC25B CDK2 inh
CCc1cc2c3c([nH]c2cc1S(=O)(=O)N1CCN(c2ccccn2)CC1)CC(C)(C)CC3=O
    1.38, x
CC(NS(=O)(=O)c1ccc(CN2C(=O)c3cccnc3C2=O)s1)c1ccc2c(c1)OCCO2 (configuration not stated)
    -0.21, x
c1ccc2c(c1)ncn2CN1CCOCC1
    x, 0.59
Cc1ccc(S(=O)(=O)Nc2ccc3oc(=O)sc3c2)cc1
    0.79, -1.56
CCCCOc1ccc(-c2noc(-c3ccc(OC)c(OC)c3)n2)cc1
    x, -1.21

Continued:
SMILES	TAR Tat displ	CDC25B CDK2 inh
O=C(Nc1ccc(Cl)c(-c2nc3ncccc3o2)c1)c1cc2ccccc2o1	0.74	-1.53
Cc1nn(-c2ccccc2)c(N)c1C#N	0.42	0.28
CCCn1c(NCc2cccs2)nc2ccccc21	-0.52	0.21
CCOC(=O)N1CCN(C(=O)Cn2ncc3c(=O)oc4ccccc4c32)CC1	0.36	0.59
O=S(=O)(c1cccs1)c1cccs1	x	-2.31
CCCCn1c(CN2CCOCC2)nc2ccccc21	0.86	-1.96
CC1(C)Cc2c(ccc3ccccc23)C(=O)N1	x	2.07
COc1ccc(-n2c(CSc3ncccn3)nnc2SCC(N)=O)cc1	3.9	-1.68
CCOC(=O)C1CCCN(S(=O)(=O)c2c(C(=O)N3CCCCC3)c(C)n(C)c2C)C1 (configuration not stated)	-0.28	x
CCc1cc(C(=O)Nc2sc(C)c(CC)c2C#N)no1	-1.05	-1
Nc1c(-c2ccccc2)cnc2cc(-c3ccccc3)nn12	x	-0.61
Cc1cc(Br)c(S(=O)(=O)N2CCC(Cc3ccccc3)CC2)cc1C	x	-4.06
CC1CCCCN1C(=O)Nc1ccc2c(c1)N(C)C(=O)c1ccccc1S2 (configuration not stated)	-1.04	-1.51
CC(Sc1nc(-c2ccccc2)cc(C(F)(F)F)n1)C(=O)O (configuration not stated)	2.85	-1.02
CCOc1ccc(N2CCCCn3c2nc2c3c(=O)[nH]c(=O)n2C)cc1	0.61	-1.64
Cc1cc(C)cc(Oc2c(C(F)(F)F)oc3c(CN(C)C)c(O)ccc3c2=O)c1	1.56	-1.19
COc1ccc(-c2cc(=O)c3c(OC)c(OC)c(OC)c(OC)c3o2)cc1	0.22	x
Cn1c(C(=O)Nc2cccc(Cl)c2)c(N2CCCC2=O)c2cc(F)ccc21	0.84	x
CC(=O)Nc1ccc2nc3c(=O)n(C)c(=O)n(C)c3nc2c1	-5.7	-1.87
Cc1c(S(=O)(=O)c2ccc(Cl)cc2)nnn1-c1ccccc1F	-1.17	-1.36
C=CCn1c(N)c(C(=O)NCc2ccco2)sc1=S	x	-1.07
CC(C)CSC(CC(=O)O)C(=O)O (configuration not stated)	1.54	-0.53
Cc1ccc2c(c1)C1(C(=O)N2C)N2CC3(C)CN1CC(C)(C2)C3=O (configuration not stated)	x	-0.59
COc1ccc(N2CCN(c3oc(/C=C/c4ccc(F)cc4)nc3C#N)CC2)cc1	0.05	-2.15
CCCCOc1ccc(C2Nc3ccccc3NC3=C2C(=O)CC(C)(C)C3)cc1 (configuration not stated)	1.2	-0.35
New compounds follow.
SMILES	TAR Tat displ	CDC25B CDK2 inh
CCCc1nn2cc(-c3ccccc3)nc2s1	1.52	0.57
COc1ccc(-c2csc(-c3cc4c([nH]c3=O)CC(c3ccccc3)CC4=O)n2)cc1 (configuration not stated)	-3.41	-1.02
O=C(Oc1ccccc1N1CCCCC1)c1ccco1	x	-0.52
c1ccc(OCCSc2ncn[nH]2)cc1	2.54	-0.85
CCOc1ccc(-n2c(CSc3nc(C)cc(C)n3)nnc2SCC(N)=O)cc1	-0.3	-1.16
O=C(NCC1CCCO1)c1ccc2c(c1)N(Cc1ccccc1)C(=O)CS2=O (configuration not stated)	x	-0.54
COc1cc(CNc2nnn(C)n2)ccc1OCc1ccccc1	0.89	x
OCCNc1ncnc2c1cnn2-c1cccc(Cl)c1	-1.21	x
O=C(c1ccco1)N1CCCN(c2nc3cc(Cl)ccc3n3cccc23)CC1	1.18	-1.83
Cc1cc(C)nc(N2CCN(c3ncnc4c3cnn4-c3ccccc3)CC2)n1	x	-0.96
CC1=CC(C)(C)N(C(=O)c2ccc(F)cc2)c2cc3c(cc21)OCO3	-0.42	-0.64
C#CCSc1nn2c(=O)c(C)nnc2s1	1.84	x
N#Cc1c(Cl)cccc1Oc1ccc(S(=O)(=O)Nc2ccc(N3CCCCC3)cc2)cc1	x	-1.29
CN(C(=O)c1cc2n(n1)C(C(F)(F)F)CC(c1ccco1)N2)c1ccccc1 (configuration not stated)	-1.11	-0.99
CSc1ccc(CCNS(=O)(=O)c2cc(-c3cc(C)no3)ccc2C)cc1	0.47	x
CC(=O)N1c2ccc(S(=O)(=O)N3CCCC(C(=O)N4CCCCC4)C3)cc2CC1C (configuration not stated)	1.88	x

Ordered by heavy-atom count (lowest first): part of the list above.
SMILES	TAR Tat displ	CDC25B CDK2 inh
O=C(Oc1ccccc1N1CCCCC1)c1ccco1	x	-0.52
Cc1cc(C)nc(N2CCN(c3ncnc4c3cnn4-c3ccccc3)CC2)n1	x	-0.96
COc1ccc(-c2csc(-c3cc4c([nH]c3=O)CC(c3ccccc3)CC4=O)n2)cc1 (configuration not stated)	-3.41	-1.02

Screening results: PubChem BioAssay, Center for Chemical Genomics, University of Michigan
